BJeLR viability – BJeLR cell viability reduction. BJeLR fibroblasts viability, CellTiterGlo ATP luminescence, 48 h; HRASV12, hTERT and SV40 LT/ST transformed. viability loss activity score, % (no concentration beside the values). 30,000 tested, 0.64% active. AID 2275; in the data active means viability loss activity score above about 50%; about a fifth of its hits are not listed in these tables;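 further: higher score means fewer live cells and less ATP luminescence; stock transfer was 50 or 100 nL into about 30 µL; 0% = vehicle wells and 100% = a reference killing control; one replicate is shown; the record names a cut of 85%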
A1 inhib – inhibitors of A1; MEF A1-2A-BIM cells, caspase-Glo luminescence, 3 h; percent of clofoctol signal, DMSO as zero; caspase activation, % (concentration not given with the values); 21,000 tested, 0.51% active;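 active means most replicate scores above 10, or exactly half above 10 with mean activity above 10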;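 further: effector caspase 3 and 7 activity cleaving a DEVD luciferin substrate; 50 nL library stock added to about 30 µL; numbers are from one replicate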
An asterisk follows results filed as active; . = not tested or not shown; & = joins results of further samples.

mol	BJeLR viability	A1 inhib
CC(=O)OC1(c2ccccc2)CC(C(C)(C)C)CN(C(C)(C)C)C1 (stereo not given)	-7.1	-0.3
CCCN1CCO[C@@H]2c3cc(O)ccc3OC[C@H]21	2.8	0.9
CC(C)(O)CCC(=O)[C@](C)(O)[C@H]1[C@H](O)C[C@@]2(C)[C@@H]3CC=C4C(C=C(O[C@@H]5O[C@H](CO)[C@@H](O)[C@H](O)[C@H]5O)C(=O)C4(C)C)[C@]3(C)C(=O)C[C@]12C (stereo not given in full)	7.8	-0.5
CCCOC(=O)c1cc2c(cn1)[nH]c1ccccc12	3.3	-0.4
CCCc1c(C)nc(SCC(=O)C(C)(C)C)nc1OC(=O)N(C)C	-6.2	0.4
CN1CCc2c(c(N3CCCCC3)nc3n[nH]c(N)c23)C1	-5.8	-0.1
CC(C)C12CN3CCN(CC(C3)/C1=N/N)C2	0.9	0.8
CC(C)c1cc2c(cc1O)[C@@]1(C)C[C@@H](O)CC(C)(C)C1CC2 (stereo not given in full)	1.6	0.1
O=C(CCn1nc(-c2ccc(Cl)cc2)ccc1=O)N1CCC2(CC1)OCCO2	0.4	-0.4
CN1CCc2nc(SCc3cccc(Cl)c3)c(C#N)cc2C1	0.8	.
Cc1ccc(Oc2c(C)nc(C)nc2OC(=O)N(C)C)cc1	0.3	-0.3
C=C1C(=O)O[C@@H]2/C=C(/C)CC/C=C(/C)C[C@@H](OC(=O)/C(=C/CO)CO)C12 (stereo not given in full)	19	1.3
CC(=O)OC1CCC2(C)C(CC[C@@H]3[C@@H]2CCC2(C)C(C4=CC(=O)OC4)CCC32O)C1 (stereo not given in full)	89*	-0.4
C[C@@]1(C(=O)O)CC[C@]2(C)CC[C@]3(C)C4=CC(=O)c5cc(O)c(O)cc5[C@]4(C)CC[C@@]3(C)[C@@H]2C1	-0.3	1.1
O=C(O)Cn1cc(C(=O)c2ccccc2F)c2ccccc21	0.6	.
O=C1CSC(c2ccccc2Cl)c2cc(Cl)ccc2N1 (stereo not given)	-2.0	-0.7
O[C@@H]1CCCC[C@H]1N1CCC(c2ccccc2)CC1	-3.2	0.1
COc1cc[n+](OC(=O)N2CCCCC2)c(C)c1	4.5	-0.4
Cc1ccc(NC(=O)c2cccc(OC(=O)N(C)c3ccccc3)c2)cc1C	0.4	-1.9
O=C(CCNS(=O)(=O)c1ccccc1)Nc1ccc(Br)cc1C(=O)c1ccccc1	7.5	-0.9
CCCN1CCc2cc(O)cc3c2[C@H]1Cc1ccc(O)c(O)c1-3	-1.1	1.5
NC1C[C@H]1c1ccccc1 (stereo not given in full)	5.1	-0.4
C=CCC1(NCCc2ccccc2)CCCCC1	-4.9	0.2
Cc1[nH]c2ccccc2c1CCNCC(C)(C)C	-7.5	-0.4
CC(=O)O[C@@H](c1nc2ccccc2c(=O)n1[C@@H]1C[C@@]2(OC1=O)c1ccccc1N1C(=O)[C@H](C)N(O)[C@@H]12)C(C)C	-5.5	-0.5

Not a retest: an excerpt of the list.
mol	BJeLR viability	A1 inhib
CCCN1CCc2cc(O)cc3c2[C@H]1Cc1ccc(O)c(O)c1-3	-1.1	1.5
NC1C[C@H]1c1ccccc1 (stereo not given in full)	5.1	-0.4
C=CCC1(NCCc2ccccc2)CCCCC1	-4.9	0.2
Cc1[nH]c2ccccc2c1CCNCC(C)(C)C	-7.5	-0.4

Entries of single compounds, looked up by structure. Screens in order: BJeLR viability, A1 inhib
Cc1ccc(Oc2c(C)nc(C)nc2OC(=O)N(C)C)cc1 as listed: 0.3, -0.3
O[C@@H]1CCCC[C@H]1N1CCC(c2ccccc2)CC1 as listed: -3.2, 0.1
CCCN1CCO[C@@H]2c3cc(O)ccc3OC[C@H]21 as listed: 2.8, 0.9

Given with two lines to a compound: 2 of the compounds above.
The line under a structure holds: BJeLR viability | A1 inhib
- O=C(CCNS(=O)(=O)c1ccccc1)Nc1ccc(Br)cc1C(=O)c1ccccc1
→ 7.5 | -0.9
- CCCN1CCc2cc(O)cc3c2[C@H]1Cc1ccc(O)c(O)c1-3
→ -1.1 | 1.5

More records
mol	BJeLR viability	A1 inhib
CC(=O)Nc1nc(C)c(Oc2ccccc2)c(OC(=O)N(C)C)n1	-1.1	0.0
CN1C(=O)c2ccccc2NC(=O)[C@]12O[C@@H]2c1ccccc1	-4.9	-0.3
CC[C@H]1CN2CC[C@H]1C[C@@H]2[C@@H](O)c1ccnc2ccc(OC)cc12	-4.2	0.4
COc1cc2c(c(OC)c1OC)-c1ccc(O)c(=O)cc1[C@@H](N)CC2	1.9	0.8
CC1CCCC(C2(O)C(=O)Nc3ccccc32)C1=O (stereo not given)	-7.2	0.8
Cn1c[n+](C)cc1C(O)c1ccccc1 (stereo not given)	7.1	-0.2
CC(=O)N1CC(=O)Nc2ccc(Cl)cc2C1c1ccccc1 (stereo not given)	-1.7	.
CCOC(=O)C1=C(C)OC(N)=C(C(=O)OCC)C12C(=O)Nc1ccccc12 (stereo not given)	-2.6	1.1
CCOC(=O)c1cc(C)sc1/N=C/C1C(=O)NC(=S)NC1=O	1.0	.
O=C(/C=C/c1ccccc1)OCC1OC(OC2OC=CC3C(O)C4OC4(CO)C23)C(O)C(O)C1O (stereo not given)	9.5	-0.2
CC12CN3CN(C1)CC(c1ccccc1)(C3)C2=O	-4.7	-0.4
COC1=CC23CCN(C)[C@H](Cc4cc(OC)c(OC)cc42)C3=CC1=O	-4.0	-0.4
COC(C/C=C/C=C/CC/C=C\CC(C)/C=C\C(=C/C(=O)O)CC(=O)O)/C(C)=C\C=C(/C)C(=O)O (stereo not given)	1.6	-0.1
CN(C(=O)c1ccc(Cl)cc1)c1ccc(Cl)cc1C(=O)c1ccccc1	1.6	-0.2
CC(C)(C)c1ccc(O)c(CN2CCN(c3ccccc3)CC2)c1	5.5	0.1
COc1ccc(CN2CCNCC2)c(OC)c1OC	-6.2	-0.2
O=C1NC(=O)C(=C/C=C/c2ccccc2)C(=O)N1	-11	2.4
COCc1cc(OC(=O)N(C)C)nc2c1c(-c1cccs1)nn2C	-1.7	0.6
CCCN1CCC[C@@H]2Cc3[nH]ncc3C[C@H]21	1.4&-3.6	-0.4&0.3
C/C=C1/C[N+]2([O-])C3CC1C(CO)C2Cc1c3[nH]c2ccc(OC)cc12 (stereo not given)	3.4	-0.3
CCOC(=S)SCc1nc2ccccc2c(=O)n1-c1ccccc1	-10.0	0.2
CC[C@]12C=CCN3CC[C@@]4(c5ccc(OC)cc5N(C)[C@H]4[C@@](O)(C(=O)OC)[C@@H]1OC(C)=O)[C@@H]32	0.3	0.7
CC(C)(C)NCC(O)c1ccccc1Cl (stereo not given)	6.7	0.7
CCN(CC)C(=O)N[C@@H]1C=C2c3cccc4[nH]cc(c34)C[C@H]2N(C)C1	0.4	0.3
Brc1cccc(CN2CCN(Cc3cccc(Br)c3)CC2)c1	9.3	0.2

Continuation:
mol	BJeLR viability	A1 inhib
CCC(C)C1NC(=O)C2CCCN2C(=O)C(CC(C)C)OC(=O)CCNC(=O)C(C)N(C)C(=O)C(C(C)C)N(C)C1=O (stereo not given)	-7.6	-0.6
CN1C[C@H](CO)C=C2c3cccc4[nH]cc(c34)C[C@H]21	-2.4	0.4
CC[C@@H]1/C=C\C=C\C[C@H](C)C(O)[C@](C)(O)C(=O)[C@H](C)C(O)[C@H](C)C(=O)[C@H](C)[C@@H](O)[C@H](C)/C=C/C(=O)O[C@H]2[C@@H](C)[C@@H](CC1)O[C@@]1(CC[C@@H](C)[C@@H](C[C@H](C)O)O1)[C@@H]2C (stereo not given in full)	-16	-0.6
O=C1NCN(c2ccccc2)C12CCN(CCCOc1ccc(F)cc1)CC2	2.9	0.6
CC1(C)C(C(=O)Nc2ccc(S(=O)(=O)c3ccc(NC(=O)C4C(C)(C)C4(C)C)cc3)cc2)C1(C)C	2.0	-0.2
CC1=NCCc2c1[nH]c1cc(O)ccc21	-5.3&4.1	-0.4&0.7
CC(C)c1cc2c(cc1O)[C@@]1(C)CCCC(C)(C)[C@@H]1CC2	4.4	-0.6
COc1cc2c(cc1OC)-c1c(OC)c(OC)c(N)c3c1[C@H](C2)N(C)CC3	3.3	0.8
O=C1NC(=O)C(CCc2ccncc2)(CCc2ccncc2)C(=O)N1Cc1ccccc1	-1.1	-0.5
COc1cc(C2=NC(O)C(=O)Nc3ccc(Cl)cc32)ccc1O (stereo not given)	2.5	0.9
CN(C(=O)Oc1cccc2cccnc12)c1ccccc1	-0.4	0.9
C/C=C1/C[C@@H](C)[C@](O)(CO)C(=O)OCC2=CCN3CC[C@@H](OC1=O)[C@@H]23	-4.9	-0.7
O=C(c1ccc2nc(N3CCCCC3)sc2c1)N1CCC2(CC1)OCCO2	6.0	-0.9
COc1cc2c3c(c1OC)-c1c(ccc(O)c1O)CC3N(C)CC2 (stereo not given)	2.4	0.9
CC(C)=CCc1c(O)cc2c(c1O)C(=O)CC(c1ccc(O)cc1)O2 (stereo not given)	4.0	-0.5
COc1cccc(OC)c1C1=NCC(=O)Nc2c1oc1ccc(Br)cc21	55*	3.4
CC[C@@]1(O)C(=O)OCc2c1cc1n(c2=O)Cc2cc3c(O)cccc3nc2-1	107*	1.1
CCC(C)[C@H]1C(=O)O[C@H](C(C)C)C(=O)N(C)[C@@H](C(C)CC)C(=O)O[C@H](C(C)C)C(=O)N(C)[C@@H](C(C)CC)C(=O)O[C@H](C(C)C)C(=O)N1C (stereo not given in full)	91*	86*
CCc1nc2ccccc2c(=O)n1-c1ccc(OC)cc1	-4.6	0.1
CC(C)C[C@H]1C(=O)N2CCC[C@H]2[C@]2(O)O[C@](NC(=O)[C@@H]3C=C4c5cccc6[nH]cc(c56)C[C@H]4N(C)C3)(C(C)C)C(=O)N12	-8.0	0.4
O=C(O)CP(=S)(c1ccccc1)c1ccccc1	6.2	0.8
O=[N+]([O-])c1ccc(O)c([N+](=O)[O-])c1	14	-2.5
CCC1=CC2CN3CCc4c([nH]c5ccccc45)[C@@](C(=O)OC)(C2)[C@@H]13	-2.7	0.5
CSc1nc(NC(C)C)nc(NC(C)C)n1	-4.8	0.5
COc1ccn(C)c(=O)c1C#N	-0.1	0.3

(listing goes on)
mol	BJeLR viability	A1 inhib
C#C[C@]1(O)CC[C@H]2[C@@H]3CCC4=CC(=O)CC[C@]4(C)[C@H]3CC[C@@]21C	-1.7	0.7
CC(=O)[C@H]1CC[C@H]2[C@@H]3CC[C@H]4C[C@H](O)CC[C@]4(C)[C@H]3CC[C@]12C	21	0.2
CNC(=O)O/N=C(/C)SC	-1.2	0.4
CN(C)C1(c2nnnn2CCOC(=O)Nc2ccc(Cl)cc2)CCCCC1	1.3	0.3
Cc1ccccc1OCCCn1cc(C(=O)C(C)(C)C)c2ccccc21	3.9	.
C[C@H]1C(=O)O[C@@H]2CCN3CC=C(COC(=O)[C@](C)(O)[C@]1(C)O)[C@H]23	-5.3	1.8
CC(C)N(C(=O)CCl)c1ccccc1	-3.8	-0.3
CC(C)c1ccc2c(c1O)CC[C@H]1C3=C(CC[C@]21C)C(=O)OC3	4.5	-0.1
COC1=CC(=O)OC(/C=C/c2ccccc2)C1 (stereo not given)	6.2	-3.3
CN1C2CCCC1CC(=O)C2	-0.7	0.4
COc1cccc(Oc2coc3cc(OC(=O)N(C)C)ccc3c2=O)c1	0.7	.
c1ccc(C2N3CCCN2CC3)cc1 (stereo not given)	-4.8	0.3
C[C@H]1CCCC(=O)CCC/C=C/c2cc(O)cc(O)c2C(=O)O1	-5.1	-0.3
CCc1cccc(CC)c1N(COC)C(=O)CCl	-9.3	-0.3
O=[N+]([O-])c1ccc2nc(N3CCNCC3)ccc2c1	7.8	0.6
Cc1cc(OC(=O)c2cccs2)c2c3c(c(=O)oc2c1)CCC3	3.4	-0.2
COC(/C=C/CC/C=C/C(=O)O)C(O)C(C)C(O)/C(C)=C/C(C)C(=O)CCCC1CC(=O)NC(=O)C1 (stereo not given)	-0.3	0.1
COCc1cc(OC(=O)N(C)C)nc(COc2ccc(Cl)cc2)n1	4.0	0.9
C=C[C@H]1CN2CC[C@H]1C[C@@H]2[C@@H](O)c1ccnc2ccccc12	-14	0.4
C=C[C@@]12CN(C)[C@H]3[C@H]1[C@@]1(C(=O)Nc4ccccc41)C1CC2[C@@H]3CO1	-2.8	0.9
O=C(Cn1ncc2ccccc21)N1CCC2(CC1)OCCO2	1.3	.
Cc1nc(-c2ccccc2)nc(OC(=O)N(C)C)c1Oc1cccc(C(F)(F)F)c1	3.4	0.0
CC1N=C(c2ccccc2)c2cc(Br)ccc2NC1=O (stereo not given)	1.1	-0.9

Individual results from the list.
Under A1 inhib, Cc1cc(OC(=O)c2cccs2)c2c3c(c(=O)oc2c1)CCC3 reads -0.2
Under BJeLR viability, C[C@H]1C(=O)O[C@@H]2CCN3CC=C(COC(=O)[C@](C)(O)[C@]1(C)O)[C@H]23 reads -5.3
Under A1 inhib, CC(C)N(C(=O)CCl)c1ccccc1 reads -0.3
Under A1 inhib, CC(C)c1ccc2c(c1O)CC[C@H]1C3=C(CC[C@]21C)C(=O)OC3 reads -0.1

Assay outcomes (PubChem BioAssay)

The list is partial; the hit share may differ from the screen's.
